# Assay outcomes (PubChem BioAssay)
# Rango complex inh = inhibitors of Rango-importin beta complex formation; Potency, µM (titrated, usually from 92.2 µM), for inactives: at the top dose inhibition of complex formation; AID 540263; Rango CFP/YFP FRET sensor + importin beta, 45 min; hit rate 0.031% among 340,000; active = rising FRET ratio curve, often small or poorly fitted; inconclusive = mostly compound fluorescence or quenching in the first reads; inactive = flat curves in all reads;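 further: potency means the concentration at half of the fitted maximal effect; 0% = DMSO wells and 100% = buffer wells lacking importin beta; nearly all actives have a fitted effect of over 15% in size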
# Target sequence (Q14974 whole entry, looked up): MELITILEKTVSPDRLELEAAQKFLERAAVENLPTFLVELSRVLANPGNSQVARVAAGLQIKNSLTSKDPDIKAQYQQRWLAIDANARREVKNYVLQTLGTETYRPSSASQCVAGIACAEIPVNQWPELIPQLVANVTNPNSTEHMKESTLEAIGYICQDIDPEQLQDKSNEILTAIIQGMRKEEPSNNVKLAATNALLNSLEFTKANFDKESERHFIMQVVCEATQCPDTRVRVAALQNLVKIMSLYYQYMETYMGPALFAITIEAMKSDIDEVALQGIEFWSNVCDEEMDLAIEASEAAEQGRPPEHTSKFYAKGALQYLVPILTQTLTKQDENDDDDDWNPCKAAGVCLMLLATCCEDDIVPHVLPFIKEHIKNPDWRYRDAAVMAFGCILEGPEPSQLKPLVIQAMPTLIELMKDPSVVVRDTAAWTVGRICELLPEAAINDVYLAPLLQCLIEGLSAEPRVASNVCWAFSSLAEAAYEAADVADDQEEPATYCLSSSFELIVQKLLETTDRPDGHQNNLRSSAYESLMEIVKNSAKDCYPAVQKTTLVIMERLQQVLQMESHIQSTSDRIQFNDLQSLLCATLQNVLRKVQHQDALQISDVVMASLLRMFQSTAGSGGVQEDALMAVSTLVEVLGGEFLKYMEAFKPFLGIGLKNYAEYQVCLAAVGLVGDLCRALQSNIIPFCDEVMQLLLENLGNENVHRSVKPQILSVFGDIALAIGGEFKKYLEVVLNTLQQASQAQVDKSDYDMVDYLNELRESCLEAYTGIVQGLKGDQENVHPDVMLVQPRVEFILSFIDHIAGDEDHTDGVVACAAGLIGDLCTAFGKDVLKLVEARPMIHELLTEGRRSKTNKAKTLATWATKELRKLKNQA
#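 FRET biosensor (snurportin 1 IBB flanked by EYFP and cerulean), 50 nM, with compound 5 min, then 0.125 microM importin beta in PBS, 1 mM DTT, 0.02% Tween-20, 0.1% BSA. CFP/YFP ratio read after 45 min at room temperature; pre-read flags interference.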
# GLA inh pH 4.5 = blocks human alpha-galactosidase A at pH 4.5 | activity change, negative = inhibition, % at 105 µM | 230,000 tested, under 10 active | purified enzyme, 4-MU-alpha-Gal fluorescence, pH 4.5 | P06280; inconclusive = small, poorly fitted or top-dose-only inhibition, or a rising curve; inactive = flat fitted curve, though single readings scatter; no compound was filed as active;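 further: 0% = full activity with enzyme and -100% = basal without enzyme; dose as in the result columns while the protocol names 77 µM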
# miR-21 FLuc = raises the signal of a miR-21 reporter | HeLa miR-21 FLuc reporter, luciferase, 48 h | Potency, µM (doses to about 38.3 µM), for the others: at the highest dose reporter change, positive = more light | 340,000 tested, under 10 active | AID 2288; active = well fitted rising curve with a large enough effect; inconclusive = small, poorly fitted or top-dose-only effect; inactive = no such curve, though single readings can be large or run the other way;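 further: % of control where 0% means no effect; miR-21 action dims this reporter so a rising signal means less miR-21 action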
#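 Luminescence from a firefly luciferase reporter carrying a miR-21 binding site downstream, stably expressed under a CMV promoter in HeLa cells that make miR-21 endogenously, reports miRNA modulation after 48 h compound exposure up to approximately 40uM final.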
# Rango dissoc inh = inhibitors of RanGTP-induced Rango-importin beta complex dissociation; O95149+P62826; Biochemical FRET Rango-importin beta, RanGTP-induced dissociation; Potency, µM (top dose mostly 46.1 µM), inactives show at the top dose activity change, negative = inhibition; hit rate 0.071% among 340,000; AID 540253; active means falling FRET ratio curve, often poorly fitted, with flat reads before Ran was added; inconclusive means other falling curves, or compound fluorescence or quenching; inactive means flat or rising ratio curve;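 further: potency means the concentration at half of the fitted maximal effect; % of control where 0% means no effect; nearly all actives have a fitted effect of over 45% in size; -100% = wells without RanGTP and RCC1; the record marks most hits as doubtful in a second field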
#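 Quantitative HTS using a FRET biosensor: 0.1 uM Rango, 0.25 uM importin beta, 0.6 uM Ran, 2 mM GTP, 0.2 uM RCC1 final, PBS with DTT, Tween-20 and BSA. Post-read taken 45 min after Ran addition.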
# * = called active by the depositor; u = inconclusive; x = not tested or not shown; & = joins results of further samples. Not all compounds are listed, so the mix of outcomes need not match the whole.
SMILES,Rango complex inh,GLA inh pH 4.5,miR-21 FLuc,Rango dissoc inh
COc1cc2ncnc(NCc3ccccc3)c2cc1OC,-1.6%,3,1%,16%
COc1cc(OC)c(NC(=O)c2cc(S(=O)(=O)N3CCOCC3)cn2C)cc1Cl,0.6%,x,-18%,13%
C=CCSC1=C(C#N)C(c2ccccc2Cl)C(C(=O)c2cccs2)C(O)(C(F)(F)F)N1 (configuration not stated),-2.5%,2,24%,-1%
Cc1csc(NC(=O)CSc2nc(C(C)C)nc3c2c(=O)n(C)c(=O)n3C)n1,1.1%,-3,0%,0%
Cc1c(Br)c(C(F)(F)F)nn1CC(=O)NCC1CCCO1 (configuration not stated),-0.1%,-2,-4%,0%
COc1cc(/C=N/Nc2nnc3c(n2)[nH]c2ccccc23)ccc1O,-5.3%,-1,-18%,16%
CC1CCN(S(=O)(=O)c2ccc(F)c(C(=O)O)c2)CC1,-6.0%,-11,-4%,-17%
CCCc1ccc(S(=O)(=O)NCc2nnc(SC)n2C)cc1,2.6%,x,-1%,-6%
O=S(=O)(Nc1nc(SCc2ccc(Cl)cc2)n[nH]1)c1ccccc1,-0.6%,-14,-17%,-1%
O=c1c2sccc2n(Cc2ccc(F)cc2)c(=O)n1-c1ccc(F)cc1,4.4%,-3,-9%,u
CN1CCN(C(=O)c2cc3sc4ccccc4c3s2)CC1,-0.3%,0,-38%,u
O=C(Nc1ccc(N2C(=O)C3C4C=CC(C4)C3C2=O)cc1Cl)c1cccs1 (configuration not stated),-0.2%,6,0%,-5%

# In a second layout: two of the compounds above.
Rango complex inh	GLA inh pH 4.5	miR-21 FLuc	Rango dissoc inh	smiles
-0.6%	-14	-17%	-1%	O=S(=O)(Nc1nc(SCc2ccc(Cl)cc2)n[nH]1)c1ccccc1
4.4%	-3	-9%	u	O=c1c2sccc2n(Cc2ccc(F)cc2)c(=O)n1-c1ccc(F)cc1

# Next section
SMILES,Rango complex inh,GLA inh pH 4.5,miR-21 FLuc,Rango dissoc inh
O=C1OC(c2cc(Br)c(O)c(Br)c2)c2ccccc21 (configuration not stated),1.1%,x,x,-4%
CCN1CCN(C(c2cccs2)C(C)NC(=O)c2ccccc2OC)CC1 (configuration not stated),0.3%,2,5%,1%
COCc1cc(C)n(CC(=O)NCC2CCCO2)c(=O)c1C#N (configuration not stated),u,x,-2%,1%
CCN1CCN(S(=O)(=O)c2ccc3c(c2)OCCO3)CC1,0.9%,-2,0%,-15%
CCCSc1ncnc2[nH]ncc12,3.7%,x,x,9%
COC(=O)CN1C(=O)C(C)(C)Oc2ccc(C(=O)Nc3cccc(OC)c3)cc21,0.4%,x,6%,-1%
CCOCCCNC(=O)C1CCC(CNS(=O)(=O)c2cccc3nsnc23)CC1 (configuration not stated),-0.5%,-4,-4%,0%
Cc1ccc(CN2CCc3c(OCC(=O)Nc4cc(C)ccc4C)cccc3C2=O)cc1,x,-1,1%,x
Cc1nc2cc(-c3ccccc3)nn2c(C)c1CCC(=O)N1CCN(c2ccccc2)CC1,0.9%,1,21%&7%,5%
Cn1cc(/C=C/C(=O)c2ccccc2)c2ccccc21,u,-9,-22%,u
CN1CCN(CC(=O)NN(Cc2ccccc2)c2ccccc2)CC1,0.0%,7,-9%,32%
OC(CNCc1ccccn1)c1ccccc1 (configuration not stated),3.5%,4,-2%,-13%
O=C(c1ccco1)N1CCN(c2c([N+](=O)[O-])nn(-c3cccc(Cl)c3)[n+]2[O-])CC1,0.1%,-5,-1%,2%
CC(=O)Nc1ccc(S(=O)(=O)Nc2cccc(-c3ccc4nncn4n3)c2)cc1,0.4%,-4,0%,18%
COc1ccccc1C(=O)NC(=O)COC(=O)Cc1n[nH]c(=O)c2ccccc12,7.1%,x,x,0%
COc1ccccc1C1CC(=O)Nc2cc(C)c(C)cc21 (configuration not stated),-2.4%,x,14%,-3%
CN(C)CCSc1nc(-c2ccccc2)nc2c1CCCC2,3.2%,-6,-11%,8%
COc1ccc(OCc2cc(C(=O)N(C)C3CCOCC3)no2)c2ccccc12,4.8%,x,-44%,18%
O=C(CNCc1ccco1)Nc1cc(S(=O)(=O)N2CCOCC2)ccc1N1CCOCC1,3.0%,x,x,-1%
COc1ccc(-c2cc(C(F)(F)F)nc(S(=O)(=O)CCCC(=O)Nc3cccc(O)c3)n2)cc1OC,-2.0%,-5,u,2%
Cc1cccc(N2CCN(C(=O)c3csc4ccccc34)CC2C)c1 (configuration not stated),3.6%,-14,-1%,-10%
COc1ccc(C(=O)Nc2nc3ccccc3s2)cc1OC,0.3%,-10,-18%,-2%
NS(=O)(=O)c1ccc(NC(=O)c2cc(=O)c3ccccc3o2)cc1,-0.1%,x,-14%,-19%
CC(C)C1C(=O)NC(=S)N1S(=O)(=O)c1ccc(C(C)(C)C)cc1 (configuration not stated),0.5%,1,14%,u
CCOC(=O)C1=NNC2(c3ccccc3)C(=O)N(c3cccc(Br)c3)C(=O)C12 (configuration not stated),-0.4%,-13,-2%,1%
CC(C)(C)NC(=O)CCN(/N=C/c1ccccc1O)C1=NS(=O)(=O)c2ccccc21,u,x,12%,-24%
COc1ccc2[nH]c(C(=O)N/N=C/c3ccc(OC)c(O)c3)cc2c1,-3.5%,x,11%,0%
Cc1ccc(OCCC(=O)Nc2ccc3c(c2)OCCCO3)cc1,0.3%,x,x,-5%
O=C(OCc1ccccc1)N1CCC2CC1c1cc(-c3ccc(F)cc3)ccc12 (configuration not stated),-0.7%,x,x,-6%
CC/C(O)=C(/C#N)c1nnc2n1CCCCC2,4.2%,1,-3%,11%
COc1ccc2cc(C)c3nnc(SCc4cccnc4)n3c2c1,-0.1%,3,3%,5%
CCC(O)c1cc2c(cc1NC(=O)c1cccs1)OCCO2 (configuration not stated),1.1%,2,0%,5%
CC(C)(C)NS(=O)(=O)c1ccc(NC(=S)NC(=O)C2CCC2)cc1,2.6%,x,2%,11%
COc1ccc(NC(=O)c2cc3c(=O)n(C)c4ccccc4c3n2C)cc1OC,-0.5%,0,9%,-5%
N#C/C(=C\c1cccc([N+](=O)[O-])c1)C(=O)NCc1ccc(Cl)cc1,-6.2%,4,4%,-7%
COCCCNC(=S)Nc1cccc(S(=O)(=O)NC2=NCCC2)c1,-0.4%,-19,-3%,13%

# Some entries already given, limited to GLA inh pH 4.5 and miR-21 FLuc.
mol	GLA inh pH 4.5	miR-21 FLuc
COC(=O)CN1C(=O)C(C)(C)Oc2ccc(C(=O)Nc3cccc(OC)c3)cc21	x	6%
CCOCCCNC(=O)C1CCC(CNS(=O)(=O)c2cccc3nsnc23)CC1 (configuration not stated)	-4	-4%
Cc1ccc(CN2CCc3c(OCC(=O)Nc4cc(C)ccc4C)cccc3C2=O)cc1	-1	1%
Cc1nc2cc(-c3ccccc3)nn2c(C)c1CCC(=O)N1CCN(c2ccccc2)CC1	1	21%&7%
Cn1cc(/C=C/C(=O)c2ccccc2)c2ccccc21	-9	-22%

# Continued.
SMILES,Rango complex inh,GLA inh pH 4.5,miR-21 FLuc,Rango dissoc inh
CCCC1=Nc2cc(C(=O)NCc3ccco3)ccc2Sc2ccccc21,-1.5%,-8,19%,-14%
COc1ccccc1N1CCN(C(=O)c2cc(-c3ccc(Cl)cc3)on2)CC1,-0.9%,-2,-3%,2%
O=C(/C=C/c1ccc(Cl)cc1Cl)NCCSc1ccccc1,5.1%,-10,-15%,-8%
COc1ccc(NS(=O)(=O)c2cn(C)nc2C)cc1,-0.4%,x,-3%,-8%
CCOC(=O)C1(Cc2ccccc2C)CCCN(C(=O)CCC(=O)OC)C1 (configuration not stated),3.1%,x,7%,-10%
COc1ccc(OC)c(NC=C2C(=O)OC3(CCCCC3)OC2=O)c1,u,-22,-2%,u
O=C(Nc1ccc(Br)cc1Cl)c1cnccn1,-5.3%,-13,-35%,-12%
COc1cc(C2C3=C(CC(C)(C)CC3=O)N(C)C(=O)N2C)cc(OC)c1OC (configuration not stated),-1.0%,6,-1%,-9%
COc1ccccc1C1/C(=C(/O)c2ccccc2)C(=O)C(=O)N1CCO (configuration not stated),0.2%,0,-4%,10%
Clc1ccc2nc(N3CCN(c4ccccc4)CC3)sc2c1,-0.7%,-3,-62%,3%
CC(C)OC(=O)CSc1nc(-c2ccc(F)cc2)nc2ccc(F)cc12,3.6%,13,0%,12%
OCC1(CCOc2ccccc2)CCN(Cc2nc3ccc(F)cc3[nH]2)CC1,-1.9%,0,6%,-11%

# Sorted by molar mass (falling): part of the list above
SMILES,Rango complex inh,GLA inh pH 4.5,miR-21 FLuc,Rango dissoc inh
Cc1csc(NC(=O)CSc2nc(C(C)C)nc3c2c(=O)n(C)c(=O)n3C)n1,1.1%,-3,0%,0%
N#C/C(=C\c1cccc([N+](=O)[O-])c1)C(=O)NCc1ccc(Cl)cc1,-6.2%,4,4%,-7%
CN1CCN(CC(=O)NN(Cc2ccccc2)c2ccccc2)CC1,0.0%,7,-9%,32%

# The list continues:
SMILES,Rango complex inh,GLA inh pH 4.5,miR-21 FLuc,Rango dissoc inh
CC(NC(=O)c1ccccc1NC(=O)c1ccccc1)C(=O)N1CCOCC1 (configuration not stated),2.7%,2,-9%,-1%
Fc1ccc(N2CCN(c3ccc4c(C(F)(F)F)cc(C(F)(F)F)nc4n3)CC2)cc1,1.4%,-4,0%,2%
Cc1cc(C)c(S(=O)(=O)N2CCN=C2c2ccccc2)c(C)c1,1.6%,3,-15%,3%
Cc1cc2ncc(S(C)(=O)=O)c(N)n2n1,-4.9%,7,-1%,-12%
CN1CCN(C(=O)c2ccccc2N(Cc2ccccc2)S(C)(=O)=O)CC1,-0.6%,-27,-10%,-8%
C=CCOc1c(Br)cc(CNn2nnnc2N)cc1OCC,1.2%,-2,-3%,-5%
CSc1ccccc1NC(=O)CN(C)CC(=O)Nc1ccc(N2CCOCC2)cc1,-5.3%,6,-1%,-2%
COc1ccc(CCn2ccc(O)c(Cc3ccc(Cl)cc3)c2=O)cc1OC,4.5%,-13,15%,-2%
COC(=O)c1ccc(Cn2cc(/C=C\[N+](=O)[O-])c3ccccc32)o1,2.8%,x,u,4%
CCN(CC)CCNC(=O)c1ccc2c(=O)n(CCc3ccccc3)c(=O)[nH]c2c1,0.4%,u,-13%,-13%
O=C(CC1SC(=Nc2ccccc2)N(Cc2ccccn2)C1=O)Nc1cccc(Cl)c1 (configuration not stated),2.8%,-19,18%,1%
O=C(CCc1c[nH]c2ccccc12)NCc1ccncc1,-0.4%,x,0%,-11%
CCCCN1C(=O)N(c2ccc(Cl)cc2)C(C)(O)CC1(C)C (configuration not stated),8.2%,x,-3%,-12%
CC(C)(C)OC(=O)C[C@H]1C/C=C\C[C@H](CC(=O)N[C@@H](CO)Cc2ccccc2)C(=O)N[C@H](C(C)(C)C)COC1=O,-1.1%,x,x,8%
CN(C)S(=O)(=O)c1ccc(NC(=O)Cn2nc(-c3ccc4c(c3)OCCO4)ccc2=O)cc1,-0.4%,x,x,-7%
COC(=O)C(Cc1ccc(O)cc1)NC(=O)C(C)NC(=O)c1ccc(C(C)(C)C)cc1 (configuration not stated),-4.5%,x,-1%,2%
O=C(COCc1cc(-c2cccs2)on1)NC1CCCCC1,-1.5%,x,-8%,8%
Cc1ccc(N2CC(C(=O)N3CCC4(CC3)CC(=O)c3ccccc3O4)CC2=O)cc1 (configuration not stated),-3.8%,x,x,15%
CC(O)CCC(=O)NNC1CC(=O)N(c2ccccc2)C1=O (configuration not stated),1.5%,-1,-3%,16%
COCCn1c(SCC(=O)Nc2ccc3c(c2)OCCO3)nc2c(c1=O)SC(C)C2 (configuration not stated),0.6%,4,-34%,-5%
CC(Nc1[nH]c(=O)n(C)c(=O)c1N=O)c1ccccc1 (configuration not stated),-5.3%,14,-5%,-10%
CCCNC(=O)c1onc(CS(=O)(=O)c2cccc(OC)c2)c1C(=O)NCCC,-0.2%,x,x,45%
O=C1Nc2c(c(=O)[nH]c(=O)n2-c2ccccc2)C(C(F)(F)F)(C(F)(F)F)N1,1.4%,2,0%,16%
CCOc1ccccc1NC(=O)CSc1nnc(CCC(=O)Nc2ccccc2F)n1C,0.4%,x,-2%,0%
CSc1ccc(CN(C)C(=O)c2cc(=O)[nH]c3ccccc23)cc1,u,x,5%,u
CCC(CC)C(=O)N(CCc1ccc(OC)cc1)Cc1nc2ccccc2c(=O)[nH]1,-3.0%,-4,25%,4%
NC(=S)N/N=C/c1ccc(-c2cccc([N+](=O)[O-])c2)o1,-1.1%,-15,-15%,11%
